GLA inh pH 4.5: qHTS Assay for Inhibitors of Human alpha-Galactosidase at pH 4.5. Alpha-galactosidase A (Homo sapiens), P06280. purified enzyme, 4-MU-alpha-Gal fluorescence, pH 4.5. activity change, negative = inhibition, % at 105 µM. 230,000 tested, under 10 active; inconclusive = small, poorly fitted or top-dose-only inhibition, or a rising curve; inactive = flat fitted curve, though single readings scatter; no compound was filed as active;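 further: 0% = full activity with enzyme and -100% = basal without enzyme; dose as in the result columns while the protocol names 77 µM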
miR-21 reporter: qHTS Assay for Modulators of miRNAs and/orActivators of miR-21; HeLa miR-21 FLuc reporter, luciferase, 48 h; Potency, µM (series often up to 38.3 µM), for the others: at the top dose reporter change, positive = more light; 340,000 tested, under 10 active; active = well fitted rising curve with a large enough effect; inconclusive = small, poorly fitted or top-dose-only effect; inactive = no such curve, though single readings can be large or run the other way;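 further: % of control where 0% means no effect; miR-21 action dims this reporter so a rising signal means less miR-21 action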
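HeLa cells endogenously expressing miR-21, stably carrying CMV-driven firefly luciferase with a downstream miR-21 binding site, 2000 cells/well. Titrations up to approximately 40 uM, 48 hours; luciferase luminescence read.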
Rango complex inh: qHTS Assay for Inhibitors of Rango (Ran-regulated importin-beta cargo) - Importin beta complex formation. Importin subunit beta-1 (Homo sapiens), Q14974. Rango CFP/YFP FRET sensor + importin beta, 45 min. Potency, µM (top dose mostly 92.2 µM), for inactives: at the top dose inhibition of complex formation. actives 0.031% (n = 340,000). AID 540263, 2011; active = rising FRET ratio curve, often small or poorly fitted; inconclusive = mostly compound fluorescence or quenching in the first reads; inactive = flat curves in all reads;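 further: potency means the concentration at half of the fitted maximal effect; 0% = DMSO wells and 100% = buffer wells lacking importin beta; nearly all actives have a fitted effect of over 15% in size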
Target sequence (Q14974 whole entry, looked up): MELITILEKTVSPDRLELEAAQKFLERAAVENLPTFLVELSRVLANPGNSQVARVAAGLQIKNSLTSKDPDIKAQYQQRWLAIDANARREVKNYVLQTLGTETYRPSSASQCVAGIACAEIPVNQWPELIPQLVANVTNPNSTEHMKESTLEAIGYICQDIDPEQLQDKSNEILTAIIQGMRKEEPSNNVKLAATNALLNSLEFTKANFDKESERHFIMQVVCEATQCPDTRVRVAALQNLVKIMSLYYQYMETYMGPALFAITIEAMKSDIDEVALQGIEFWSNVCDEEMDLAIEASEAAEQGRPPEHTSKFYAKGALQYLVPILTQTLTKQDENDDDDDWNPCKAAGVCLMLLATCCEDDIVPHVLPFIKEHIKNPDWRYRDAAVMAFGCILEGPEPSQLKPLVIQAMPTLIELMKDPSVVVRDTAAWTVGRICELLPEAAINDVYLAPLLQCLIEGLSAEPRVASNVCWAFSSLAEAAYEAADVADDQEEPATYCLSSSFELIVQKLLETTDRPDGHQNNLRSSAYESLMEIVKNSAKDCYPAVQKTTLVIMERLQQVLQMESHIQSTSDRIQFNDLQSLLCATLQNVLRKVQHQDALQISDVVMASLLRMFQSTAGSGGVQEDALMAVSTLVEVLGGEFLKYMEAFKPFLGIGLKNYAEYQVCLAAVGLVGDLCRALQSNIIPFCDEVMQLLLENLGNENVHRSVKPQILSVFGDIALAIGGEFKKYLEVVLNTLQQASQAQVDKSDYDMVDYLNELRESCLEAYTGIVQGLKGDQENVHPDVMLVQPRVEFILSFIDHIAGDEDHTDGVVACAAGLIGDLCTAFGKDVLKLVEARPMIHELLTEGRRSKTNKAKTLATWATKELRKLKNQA
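FRET biosensor Rango (snurportin 1 IBB between N-terminal EYFP and C-terminal Cerulean), 50 nM in PBS/1 mM DTT/0.02% Tween-20/0.1% BSA, preincubated 5 min RT with compound; 0.125 microM importin beta added, 45 min RT, CFP/YFP FRET ratio read.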
Rango dissoc inh: qHTS Assay for Inhibitors of RanGTP induced Rango (Ran-regulated importin-beta cargo) - Importin beta complex dissociation | Snurportin-1 (Homo sapiens) + GTP-binding nuclear protein Ran (Homo sapiens) + Importin … | Biochemical FRET Rango-importin beta, RanGTP-induced dissociation | Potency, µM (top dose mostly 46.1 µM), for inactives: top-dose activity change, negative = inhibition | actives 0.071% (n = 340,000); active means falling FRET ratio curve, often poorly fitted, with flat reads before Ran was added; inconclusive means other falling curves, or compound fluorescence or quenching; inactive means flat or rising ratio curve;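 further: potency means the concentration at half of the fitted maximal effect; % of control where 0% means no effect; nearly all actives have a fitted effect of over 45% in size; -100% = wells without RanGTP and RCC1; the record marks most hits as doubtful in a second field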
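Two FRET readings bracket the reaction: one 5 min after compound meets Rango–importin beta, another 45 min after RanGTP-RCC1 (0.6 uM Ran, 0.2 uM RCC1, 2 mM GTP) is added. Only the second defines inhibition.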
* marks the source's active call; other numbers are inactive results; & = joins results of further samples. Only part of the results is shown; the hit share may differ from the screen's.

`Cc1ccc(C(=O)N/C(=C/C=C/c2ccccc2)C(=O)NCc2ccco2)cc1` gave GLA inh pH 4.5 -8, miR-21 reporter 0%, Rango complex inh inconclusive and Rango dissoc inh -1%.
O=C(CSc1ccc2nnc(-c3ccccn3)n2n1)Nc1ccc(F)cc1 was read as miR-21 reporter -1%, Rango complex inh 0.2% and Rango dissoc inh 17%.
`O=C(O)c1cc([N+](=O)[O-])cc2c1C=Cc1ccccc1O2` gave miR-21 reporter -6%, Rango complex inh 7.5% and Rango dissoc inh 30%.
Screening O=C(O)c1cc(-c2ccccc2)nc2nc(N3CCCCC3)sc12 returned GLA inh pH 4.5 inconclusive and miR-21 reporter -6%.
Screening Cc1cc(C(=O)NCc2ccccc2)no1 returned GLA inh pH 4.5 3, miR-21 reporter -9%, Rango complex inh -0.7% and Rango dissoc inh 0%.
`O=c1[nH]c(SCc2ccccc2)nc2[nH]ncc12` gave GLA inh pH 4.5 -11, miR-21 reporter -38%, Rango complex inh -2.3% and Rango dissoc inh 14%.
O=C(Nc1nnc(-c2ccc3c(c2)CCCC3)o1)c1c(F)cccc1F was read as GLA inh pH 4.5 -5, miR-21 reporter -46%, Rango complex inh 5.4% and Rango dissoc inh -11%.
Screening COc1cc(OC)cc(-c2nc(-c3ccccc3OC)no2)c1 returned GLA inh pH 4.5 2, miR-21 reporter -31%, Rango complex inh -4.9% and Rango dissoc inh 10%.
Cc1cc(C)cc(NC(=O)N2CCCN(c3c(Cl)cncc3Cl)CC2)c1 was read as GLA inh pH 4.5 -3, miR-21 reporter 0%, Rango complex inh 0.1% and Rango dissoc inh -5%.
For Cc1cc(C(=O)N(NC(=O)C(C)C)c2ccccc2)cs1 the results were GLA inh pH 4.5 -20, miR-21 reporter 0%, Rango complex inh 4.3% and Rango dissoc inh 0%.
For COc1ccc(-n2ccnc2SCC(=O)NCc2ccc3c(c2)OCO3)cc1 the results were GLA inh pH 4.5 6, miR-21 reporter 1%, Rango complex inh 4.5% and Rango dissoc inh 13%.
`Cc1nc2scc(-c3cccs3)c2c(=O)[nH]1` gave GLA inh pH 4.5 4, miR-21 reporter -15%, Rango complex inh -2.7% and Rango dissoc inh -3%.

Molecules listed so far containing an aryl methoxy group, in the order listed:
Screening COc1cc(OC)cc(-c2nc(-c3ccccc3OC)no2)c1 returned GLA inh pH 4.5 2, miR-21 reporter -31%, Rango complex inh -4.9% and Rango dissoc inh 10%.
For COc1ccc(-n2ccnc2SCC(=O)NCc2ccc3c(c2)OCO3)cc1 the results were GLA inh pH 4.5 6, miR-21 reporter 1%, Rango complex inh 4.5% and Rango dissoc inh 13%.

The list continues:
For O=C(Nc1ccccc1C(=O)N1CCCCC1)c1cccc(S(=O)(=O)N2CCOCC2)c1 the results were GLA inh pH 4.5 -2, miR-21 reporter -11%, Rango complex inh -2.4% and Rango dissoc inh 0%.
`CN(CCOc1ccc(Cl)cc1)CC(=O)Nc1ccc(OC(F)F)cc1` gave miR-21 reporter 2%, Rango complex inh -0.5% and Rango dissoc inh 2%.
`COn1c(=S)[nH]c2ccccc2c1=O` gave GLA inh pH 4.5 2, miR-21 reporter -2%, Rango complex inh -2.3% and Rango dissoc inh -12%.
Screening Cn1nc(C(F)(F)F)c2cc(C(=O)Nc3ccc(Cl)cc3)sc21 returned GLA inh pH 4.5 2, miR-21 reporter -1%, Rango complex inh -1.0% and Rango dissoc inh -5%.
`O=C(CCCN1C(=O)/C(=C/c2cccs2)SC1=S)NNC(=O)c1ccc(F)cc1` gave GLA inh pH 4.5 -2, miR-21 reporter -4%, Rango complex inh -1.1% and Rango dissoc inh -10%.
`Cc1cccc(C(=O)N2CCc3cc(-c4csc(NC(=O)CN5CCCC5)n4)ccc32)c1` gave miR-21 reporter -8%, Rango complex inh -3.4% and Rango dissoc inh -8%.
Screening O=C1NC[C@@H](Cc2ccc(O)cc2)N(CC2CCCCC2)C1=O returned GLA inh pH 4.5 5, miR-21 reporter 0%, Rango complex inh -0.4% and Rango dissoc inh -11%.
`CC(C)(C(=O)c1ccccc1)/[N+]([O-])=C/c1ccc(Br)cc1` gave Rango complex inh -2.9% and Rango dissoc inh 5%.
For Cc1ccc(CNC(=O)c2ccc(CNc3c(N4CCCC4)c(=O)c3=O)cc2)cc1 the results were GLA inh pH 4.5 -1, miR-21 reporter -7%, Rango complex inh 0.2% and Rango dissoc inh -9%.
`Cc1cccc(N2C(=O)/C(=C\c3ccc(C(=O)O)cc3)c3ccccc3C2=O)c1` gave GLA inh pH 4.5 -14, miR-21 reporter 1%, Rango complex inh inconclusive and Rango dissoc inh -26%.
`Cc1nc(-c2ccccc2)sc1-c1ccn[nH]1` gave GLA inh pH 4.5 8, miR-21 reporter -46%, Rango complex inh -0.4% and Rango dissoc inh 2%.
Screening COc1ccc(CNCCC2(C(C)C)CCOC(C)(C)C2)cc1 (centres undefined) returned GLA inh pH 4.5 6, miR-21 reporter -4%, Rango complex inh -4.8% and Rango dissoc inh 33%.
For CCCN(CC(=O)Nc1ccccc1OC)C(=O)Cc1ccccc1F the results were miR-21 reporter -1%, Rango complex inh -3.5% and Rango dissoc inh -5%.
`CC1CC(Nc2ccccc2)c2ccccc2N1C(=O)c1ccccc1F` (centres undefined) gave miR-21 reporter 8%, Rango complex inh 0.1% and Rango dissoc inh 11%.
`COCCN(Cc1nnc(-c2cccs2)o1)C(=O)CN1C(=O)NC2(CCCCC2)C1=O` gave Rango complex inh 3.9% and Rango dissoc inh 3%.
Screening COc1cccc(C(=O)NCC(=O)N2CCN(c3ccc(C(F)(F)F)cn3)CC2)c1 returned Rango complex inh -2.4% and Rango dissoc inh 0%.
CC(/C=C1\N=C(SCc2ccccc2)SC1=O)=C\c1ccccc1 was read as GLA inh pH 4.5 -11, miR-21 reporter 1%, Rango complex inh inconclusive and Rango dissoc inh -13%.
For CCOc1ccc(/C=N/NC(=O)CN2CCCCCCC2)cc1 the results were GLA inh pH 4.5 -1, miR-21 reporter 5%, Rango complex inh 0.5% and Rango dissoc inh 13%.
`Cc1ccc(/C=C2/C(=O)N(c3ccccc3)C(=S)N2C)o1` gave GLA inh pH 4.5 -21, miR-21 reporter -4%, Rango complex inh -0.7% and Rango dissoc inh -1%.
Cc1cccc(-c2noc(-c3ccc4c(c3)OCO4)n2)c1 was read as GLA inh pH 4.5 2, miR-21 reporter -2%, Rango complex inh 2.4% and Rango dissoc inh 4%.
For Cc1ccccc1CS(=O)(=O)CCC(=O)NCCCN1CCOCC1 the results were GLA inh pH 4.5 inconclusive, miR-21 reporter -2%, Rango complex inh 0.5% and Rango dissoc inh 1%.
Screening Cc1ccc2ncnc(Nc3cccc([N+](=O)[O-])c3)c2c1 returned miR-21 reporter 14%, Rango complex inh 0.0% and Rango dissoc inh -4%.
COCCN1C(=O)N[C@H](c2cccc(C(F)(F)F)c2)C(C(=O)OC)=C1C was read as GLA inh pH 4.5 1&-1 and miR-21 reporter -1%.
For CC(=O)N1CCN(c2ccccc2NC(=O)COc2cc(C)cc(C)c2)CC1 the results were miR-21 reporter -4%, Rango complex inh -1.9% and Rango dissoc inh -7%.
COCCn1c(SCC(=O)Nc2ccc(C(C)=O)cc2)nnc1-c1ccco1 was read as miR-21 reporter 0%, Rango complex inh 1.4% and Rango dissoc inh 8%.
`CN1CCN(/C=C2\SC(=S)NC2=O)CC1` gave GLA inh pH 4.5 -11, miR-21 reporter -3%, Rango complex inh 3.5% and Rango dissoc inh -7%.
For COc1ccc(NS(=O)(=O)c2cn(C)c(=O)n(C)c2=O)c(OC)c1 the results were GLA inh pH 4.5 8, miR-21 reporter 2%, Rango complex inh -0.5% and Rango dissoc inh 3%.
For COC1=C(Nc2ccccc2)C(=O)C(OC)=C(Nc2ccccc2)C1=O the results were Rango complex inh -0.9% and Rango dissoc inh -2%.
`COc1ccc(-c2csc(N(Cc3ccccc3)C(=O)COc3ccc(Cl)cc3)n2)cc1` gave GLA inh pH 4.5 11, miR-21 reporter -1%, Rango complex inh -0.7% and Rango dissoc inh 16%.
`Cc1cccc(CC2(O)C(=O)Nc3ccccc32)n1` (centres undefined) gave Rango complex inh -4.2% and Rango dissoc inh 16%.
N#C/C(=C\c1ccco1)C(=O)NCc1ccccc1 was read as GLA inh pH 4.5 6, miR-21 reporter -21%, Rango complex inh -1.3% and Rango dissoc inh 8%.
Screening COC1=NC(=C(c2ccccc2)c2ccccc2)OC1=O returned Rango complex inh 0.8% and Rango dissoc inh -6%.
Screening Cc1ccccc1NC(=O)C(c1ccccc1)C1CCCC1 (centres undefined) returned GLA inh pH 4.5 6, miR-21 reporter 1%, Rango complex inh -1.8% and Rango dissoc inh -7%.
`CCCC(c1nnnn1C(C)(C)C)N1CCN(C(=O)c2ccco2)CC1` (centres undefined) gave GLA inh pH 4.5 2, miR-21 reporter 0%, Rango complex inh -3.4% and Rango dissoc inh 12%.
Screening Cc1cccc(NC(=O)Nc2cccc(C#N)c2)n1 returned GLA inh pH 4.5 7, miR-21 reporter -27%, Rango complex inh 2.3% and Rango dissoc inh 14%.
`CC(C)CC(NC(=O)C1CCCN1C(=O)OC(C)(C)C)C(=O)NCC(N)=O` (centres undefined) gave miR-21 reporter -5%, Rango complex inh -1.0% and Rango dissoc inh 0%.

Arranged by SMILES length (smallest number first): part of the list above
N#C/C(=C\c1ccco1)C(=O)NCc1ccccc1 was read as GLA inh pH 4.5 6, miR-21 reporter -21%, Rango complex inh -1.3% and Rango dissoc inh 8%.
`CCCC(c1nnnn1C(C)(C)C)N1CCN(C(=O)c2ccco2)CC1` (centres undefined) gave GLA inh pH 4.5 2, miR-21 reporter 0%, Rango complex inh -3.4% and Rango dissoc inh 12%.
For COC1=C(Nc2ccccc2)C(=O)C(OC)=C(Nc2ccccc2)C1=O the results were Rango complex inh -0.9% and Rango dissoc inh -2%.

More compounds follow.
Screening C#CCOCCOCCOCCNc1nc(N2CCN(C(=O)[C@H]([C@@H](C)CC)n3cc([C@@H](N)CC(C)C)nn3)CC2)nc(N2CCN(C(=O)[C@H](CCCCN)n3cc([C@@H](N)C(C)CC)nn3)CC2)n1 (some centres undefined) returned GLA inh pH 4.5 0, miR-21 reporter 0%, Rango complex inh -0.7% and Rango dissoc inh 3%.
For CC1(C)Cc2nc(-c3ccccc3)nc(SCC(=O)N3CCOCC3)c2CO1 the results were miR-21 reporter 1%, Rango complex inh -1.1% and Rango dissoc inh -11%.
O=C(NCc1cccs1)c1noc2c1CCCCC2 was read as GLA inh pH 4.5 -4, miR-21 reporter -25%, Rango complex inh 3.6% and Rango dissoc inh inconclusive.
For COc1ccc(NC(=O)CS(=O)(=O)c2cn(CC(=O)N(C(C)C)C(C)C)c3ccccc23)c(OC)c1 the results were miR-21 reporter -2%, Rango complex inh inconclusive and Rango dissoc inh -2%.
`CCOC(=O)C1(Cc2ccccc2C(F)(F)F)CCN(Cc2ccon2)CC1` gave GLA inh pH 4.5 -4, miR-21 reporter 10%, Rango complex inh 0.2% and Rango dissoc inh 0%.
COc1cccc(C2Nc3ccccc3C(=O)N2O)c1O (centres undefined) was read as GLA inh pH 4.5 -1, miR-21 reporter -38%, Rango complex inh -4.2% and Rango dissoc inh inconclusive.
Screening COc1ccc(Nc2c(-c3ccc(OC)cc3)nc3cnccn23)cc1 returned GLA inh pH 4.5 -2, miR-21 reporter -14%, Rango complex inh inconclusive and Rango dissoc inh -3%.
`Fc1cccc2sc(N3CCCC3)nc12` gave GLA inh pH 4.5 2, miR-21 reporter -58%, Rango complex inh -2.8% and Rango dissoc inh 11%.
`CN(C)S(=O)(=O)c1ccc(Cl)c(C(=O)Nc2nc3ccccc3[nH]2)c1` gave GLA inh pH 4.5 -1, miR-21 reporter -2%, Rango complex inh 1.3% and Rango dissoc inh -9%.
`CCn1c(=S)sc2c(=O)n(CC(=O)Nc3ccc(C(C)=O)cc3)c(C)nc21` gave miR-21 reporter 2%, Rango complex inh -3.2% and Rango dissoc inh 5%.

Source: PubChem
